Screening data deposited in PubChem BioAssay by ICCB-Longwood Screening Facility, Harvard Medical School.
PV pol inh = poliovirus RNA polymerase inhibition; P03300; % elongation, % (compound at 16.7 µg/mL); AID 588519; hit rate 0.66% among 150,000; poliovirus polymerase elongation, fluorescence polarization; stronger effect = lower value; in the data active = % elongation below about 90%; also: some results filed as inactive read as strong as hits
Target sequence (P03300 1749-2209 limits assumed): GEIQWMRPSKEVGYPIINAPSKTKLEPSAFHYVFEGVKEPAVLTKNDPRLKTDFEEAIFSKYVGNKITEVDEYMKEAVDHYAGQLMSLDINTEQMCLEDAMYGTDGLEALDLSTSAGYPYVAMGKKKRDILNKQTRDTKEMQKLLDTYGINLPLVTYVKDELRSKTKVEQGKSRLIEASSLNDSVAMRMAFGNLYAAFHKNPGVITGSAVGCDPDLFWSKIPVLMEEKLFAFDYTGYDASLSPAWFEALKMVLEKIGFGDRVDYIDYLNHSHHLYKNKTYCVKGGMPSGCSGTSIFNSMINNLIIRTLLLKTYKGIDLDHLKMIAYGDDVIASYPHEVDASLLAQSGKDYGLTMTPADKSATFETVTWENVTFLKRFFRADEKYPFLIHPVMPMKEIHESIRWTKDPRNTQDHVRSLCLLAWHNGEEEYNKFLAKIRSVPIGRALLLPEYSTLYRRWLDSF
PV pol inh intensity = also measured in PV pol inh; calls as there; % elongation; measured here: total intensity read-out; formula for this scale not given here;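 total fluorescence in place of polarization; lower means less elongation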
* = called active by the depositor. Some of the compounds tested; the hit share may differ from the screen's.

SMILES	PV pol inh	PV pol inh intensity
COc1ccccc1CNC(=O)CCCCn1c(=O)c2ccccc2n(CC(=O)Nc2cc(Cl)ccc2C)c1=O	105	108
O=C(CSc1nc2ncccc2o1)Nc1cccc(C(F)(F)F)c1	110	102
Cc1ccc(S(=O)(=O)c2[nH]c(-c3ccccc3)nc2SCC(N)=O)cc1	108	112
N#C/C(=C\c1cccc(F)c1)c1nc(-c2cc3c(ccc4ccccc43)oc2=O)cs1	101	112
COc1cccc(CNc2cc(C)nc3nc(-c4ccc(C)cc4)nn23)c1	111	127
COC(=O)c1c(C)sc(-c2c(-c3ccc4c(c3)OCCO4)[nH]c3c2c(=O)n(C)c(=O)n3C)c1O	116	124
Fc1ccc(Nc2nc(SCc3cccc(Cl)c3)nc3ccccc23)cc1	106	112
Cc1cc(NC(=O)C2CCCN(S(=O)(=O)c3cccc4nsnc34)C2)ccc1Br (stereo unspecified)	109	113
Cc1cc(C)cc(N2C(=O)N(CC(=O)c3ccc(Br)cc3)c3ccccc3S2(=O)=O)c1	107	107
COc1cccc(NC(=O)CN(C)S(=O)(=O)c2ccc3nc(C)sc3c2)c1	109	113
Cc1ccc(NC(=O)CN2CCN(S(=O)(=O)c3ccc(C(C)C)cc3)CC2)cc1F	110	102
COc1cccc(CNC(=O)CNS(=O)(=O)c2ccc3nc(C)sc3c2)c1	113	123
CCCOc1ccc(CNC(=O)C(NS(=O)(=O)c2cccs2)C(C)C)cc1 (stereo unspecified)	105	107
Cc1cc(C)c(NC(=O)CSc2nc(=O)n(Cc3cccnc3)c3c2CCC3)c(C)c1	110	104
CN(C)S(=O)(=O)c1ccc(C(=O)N2CC(=O)Nc3ccc(Br)cc3C2c2ccc(F)cc2)cc1 (stereo unspecified)	105	107
Cc1cccc(-n2c(=O)c3ccccc3n(Cc3ccccc3)c2=O)c1	108	111
CCOC(=O)N1CCc2c(sc3c2c(=O)n(Cc2ccccc2)c(=O)n3Cc2cc(C)ccc2C)C1	108	110
CCOC(=O)c1cc(-c2ccc(OC)cc2)n(CCC(=O)Nc2ccc(OC)cc2OC)c1C	108	114
CCn1c(=O)cc(OCC(=O)NCc2ccccc2OC)c2ccccc21	108	106
O=C(CCC(=O)N1Cc2ccccc2Oc2ncccc21)NCc1cccc(Cl)c1	108	112
COc1cccc(-c2ncnn2-c2sc3c(c2C#N)CCCCC3)c1OC	110	110
Cc1ccc(CCNC(=O)C2CC(=O)N(CCc3ccc(C)cc3)C2)cc1 (stereo unspecified)	114	117
COc1cccc(-c2nc(CSCC(=O)NCCc3ccc(Cl)cc3)c(C)o2)c1	100	96
O=C(COc1ccccc1-c1nnc(-c2ccccc2)o1)Nc1ccc(Br)cc1F	107	112
COc1ccc(C)cc1NC(=O)CN1CCN(S(=O)(=O)c2ccc(Br)cc2)CC1	101	107
COCCc1nn2c(=O)cc(COC(=O)c3cccs3)nc2s1	108	114
c1ccc(-c2cc3ncc4c(n3n2)-c2ccccc2OC4)cc1	109	112
O=C(Nc1ccc2c(c1)OCO2)c1cccn(Cc2ccccc2)c1=O	107	101
CCn1cc2nc(SCc3cccc(C(F)(F)F)c3)n(Cc3ccc(C)cc3)c(=O)c2n1	106	110
Cc1ccc(CNC(=O)c2ccc(N3Cc4ccccc4Oc4ncccc43)s2)cc1	108	106
COc1ccc(NC(=O)CSC2=Nc3ccccc3C3=NC(CCC(=O)NC4CCCCC4)C(=O)N23)cc1 (stereo unspecified)	113	114
CCOc1ccc(CNCc2c(C(=O)O)c(C)n(Cc3c(F)cccc3Cl)c2C)cc1OC	100	104
CC(=O)Nc1ccc(C(=O)CSc2nnc3ccc4ccccc4n23)cc1	106	105
CCOC(=O)c1ccc(NC(=O)C2=C(C)C(=O)OC23CCN(C(C)=O)CC3)cc1	106	108
Cc1cc(C)cc(-n2nnc(-c3nc(-c4ccccc4F)no3)c2C)c1	100	98
CCCc1cc(=O)[nH]c2nnc(SC(C)CC)n12 (stereo unspecified)	110	111
CCOc1ccccc1CNC(=O)c1cc2cc(S(=O)(=O)N3CCCCC3)ccc2n1C	116	118
CCCCNC(=O)CCSc1nc(-c2ccc3c(c2)OCO3)cc(C(F)(F)F)n1	107	111
O=C(CSc1c2c(nc3ccccc13)CCC2)Nc1ccc(F)cc1	99	98
O=C(NCc1ccccc1Cl)c1ccc(-n2cnc3cccnc32)cc1	101	111
Cc1cc(-c2ccc(C)c(S(=O)(=O)NCc3ccc(Cl)cc3)c2)on1	103	100
COc1ccc(/C=C(\NC(=O)c2ccccc2)C(=O)NC2CCCCC2)cc1	98	103
CCN(CC)c1cc(C)c2cc(NC(=O)/C=C/c3ccc(C)cc3)ccc2n1	103	108
CCCCC(=O)NC1CC(=O)N(c2ccc3c(c2)OCCO3)C1 (stereo unspecified)	107	99
CCOc1ccccc1NC(=O)c1cc2cc3cc(C)ccc3nc2s1	103	109
CCCCn1c(COc2cccc(OC)c2)nc2ccccc21	113	116
CCc1nc(SCc2cc(=O)c3cc(C)ccc3[nH]2)n[nH]1	103	103
CC1CCN(S(=O)(=O)c2ccc3c(c2)N(CC(=O)NCC(C)c2ccccc2)C(=O)CO3)CC1 (stereo unspecified)	105	105
CC(=O)c1ccc(NC(=O)CSc2nc3c(=O)n(C)c(=O)n(C)c3n2C)cc1	107	108
Cc1ccc(-n2nnc(-c3nsc(NC(=O)c4cccc(Cl)c4)n3)c2C)cc1C	105	109
COC(=O)c1ccccc1NC(=O)Cc1nc(-c2ccc(OC)cc2)no1	104	101
CCN(CC)CCNC(=O)c1cn(CCOC)c(=O)c2c1c1ccccc1n2C	106	108
CCOC(=O)c1ccc(NS(=O)(=O)c2ccc3[nH]c4c(c3c2)CCCCC4)cc1	105	113
CN1C(=O)C(C)(C)c2cc(S(=O)(=O)N3CCCC3C(=O)Nc3ccc(F)cc3)ccc21 (stereo unspecified)	106	110
CC(Sc1nc(=O)cc(N)n1CCc1ccccc1)C(=O)Nc1ccc(Cl)cc1 (stereo unspecified)	104	106
CCOc1ccc(CCNC(=O)c2sc3nc4n(c(=O)c3c2C)CCCC4)cc1	104	111
COc1ccc(CCNC(=O)c2ccc(Cn3c(=O)c4ccccc4n(Cc4ccc(F)cc4Cl)c3=O)cc2)cc1OC	111	112
COc1cc(OC)c(OC)cc1/C=C/c1nc2cc3ccccc3cc2c(=O)n1-c1ccc(F)cc1F	131	142
CCOC(=O)c1ccc(N2C(=O)c3[nH]nc(-c4ccccc4)c3C2c2ccc(C(C)C)cc2)cc1 (stereo unspecified)	111	110
CCN(CC)CCNc1ncnc2c1cnn2-c1cc(Cl)ccc1C	112	113
Later entries.
SMILES	PV pol inh	PV pol inh intensity
CCCOc1ccc(CNC(=O)c2ccc(C)c(-n3c(C)nc4cccnc43)c2)cc1	109	113
CCc1ccccc1NC(=O)C1CCCN(c2cnccn2)C1 (stereo unspecified)	110	114
CCN(CC)C(=O)c1c(-c2ccccc2)c(-c2ccccc2)nn(C)c1=O	104	101
COc1ccc(CCNC(c2ccc(F)cc2)c2nnc(-c3ccccc3Cl)o2)cc1OC (stereo unspecified)	106	110
COc1cccc(OCc2cc(=O)n3cc(C)sc3n2)c1	105	106
CC(=O)N1CCCc2cc(S(=O)(=O)N3CCCCC3)ccc21	111	115
O=C(c1ccc(Cl)cc1)c1cn(Cc2ccccc2)c2cc3c(cc2c1=O)OCCO3	106	103
COc1ccc(-c2ccc3c(N)c(C(=O)Nc4cc(F)ccc4C)sc3n2)cc1	106	104
COc1cccc(NC(=O)c2ccc3[nH]c(C)cc(=O)c3c2)c1	112	114
Cc1ccc(CN2C(=O)c3ccccc3Sc3ccc(C(=O)N4CCC5(CC4)OCCO5)cc32)cc1	113	114
Cc1ccc(CNC(=O)CN2C(=O)COc3ccc(S(=O)(=O)N4CCC(C)CC4)cc32)cc1	105	100
CCOc1ccc(N(CC(=O)NCc2ccccc2Cl)S(=O)(=O)c2c(C)[nH]c(=O)[nH]c2=O)cc1	100	101
Cc1ccc(NC(=O)Cn2c(=O)n(Cc3nc(-c4ccccc4)no3)c(=O)c3ccccc32)c(C)c1	98	103
COc1ccc(-c2cn3c(n2)sc2cc(C(=O)NC4CCCCC4)ccc23)cc1	111	113
COc1cccc(NC(=O)c2sc3nc(C)c(C(=O)Nc4ccc(C)cc4C)c(-c4ccc(C)o4)c3c2N)c1	115	124
CC1CN(C(=O)CCC(=O)NCc2ccccc2)c2cc(Cl)ccc2O1 (stereo unspecified)	107	111
CCN(Cc1ccccc1)C(=O)Cn1c(=O)n(-c2ccc(OC)cc2OC)c(=O)c2c(C)c(C)sc21	105	111
Cc1cc(C)c(NC(=O)c2cc(S(=O)(=O)NCCC3=CCCCC3)ccc2F)c(C)c1	105	110
CCOc1ccc(S(=O)(=O)Nc2ccc3oc4c(c3c2)CC(C)CC4)cc1 (stereo unspecified)	106	110
Cc1cc(C)cc(NC(=O)c2ccc3oc(=O)c(S(=O)(=O)c4ccc(F)cc4)cc3c2)c1	100	102
CC(CNC(=O)c1cnn(-c2ccc(F)cc2)c1-n1cccc1)c1ccccc1 (stereo unspecified)	103	108
CCOc1ccc(CCNC(=O)CSc2nnnn2-c2ccccc2Cl)cc1OCC	106	106
CCC(C(=O)NC1CCCCC1)n1c(SCc2ccccc2F)nc2ccncc21 (stereo unspecified)	106	107
O=c1[nH]c(SCc2c(F)cccc2Cl)nc2c1CCCC2	102	105
Cc1ccc(NC(=O)c2cnc(SCC(=O)Nc3cc(C)on3)n(C)c2=O)cc1	112	108
Cc1cccc(NC(=O)Cn2c(=O)oc3cc(S(=O)(=O)NC4CCCC4)ccc32)c1	105	110
CCCC(CCC)C(=O)Nc1cc(-c2cn3cccnc3n2)ccc1OC	104	110
Cc1ccc(NC(=O)CN2C(=O)CN=C(c3ccccc3)c3ccccc32)c(C)c1	114	113
CCNc1nc(Oc2ccc(OCC(=O)OC)nn2)nc(N2CCOCC2)n1	104	109
CCOC(=O)CC(=O)CSc1nc2ccccc2c(=O)n1CCc1ccccc1	103	104
Cc1ccc(Cn2c(CO)cnc2SCc2ccc(F)cc2)cc1	104	101
O=C(Nc1ccc(Br)cc1F)c1ccc2nc(CCc3ccccc3)oc2c1	99	105
Cc1cc(C)cc(NS(=O)(=O)c2ccc3[nH]cc(C(=O)NCCc4ccccc4)c(=O)c3c2)c1	110	112
CCn1cc(S(=O)(=O)c2cc(C)cc(C)c2)c(=O)c2cc(F)c(N3CCC(C)CC3)cc21	105	104
Cc1ccc(CSc2oc(-c3ccco3)nc2S(=O)(=O)c2ccc(C)cc2)cc1	107	108
COc1ccc(C(=O)Nc2ccc3oc(-c4ccc(OC)cc4)nc3c2)cc1	100	105
CCOc1ccccc1C(=O)NCc1ccc2c(c1)CCN2C(=O)c1ccc(F)cc1	108	106
CCOc1ccccc1NC(=O)Nc1ccc2nc(N3CCN(C)CC3)cc(C)c2c1	112	110
O=C(Nc1nc2nc(-c3ccccc3)cc(=O)n2[nH]1)c1ccc(F)cc1	97	102
Cc1c(NC(=O)c2ccc(-c3cccc([N+](=O)[O-])c3)o2)cccc1-c1nc2cc(Cl)ccc2o1	101	104
Cc1cccc(C(=O)Nc2ccc3oc(-c4ccncc4)nc3c2)c1	105	108
Cc1cccc(NC(=O)C2CCN(S(=O)(=O)c3cccc4nsnc34)CC2)c1C	104	107
Cc1ccc2[nH]c3c(=O)n(CC(=O)N4CCN(c5ccccc5F)CC4)ncc3c2c1	113	115
CCOc1ccccc1NC(=O)c1c(NC(=O)COc2ccccc2)sc2c1CCCCC2	105	100
COc1ccc(NC(=O)CC2C(=O)N(c3ccc(C)cc3)C(=O)N2C2CCCC2)cc1 (stereo unspecified)	102	102
CC(C)(CC(=O)NCc1ccc(Cl)cc1Cl)CC1=NS(=O)(=O)c2ccccc2N1	110	110
CC(C)CCN(C(=O)Nc1ccc(Cl)c(Cl)c1)C(C)c1cccs1 (stereo unspecified)	106	94
COc1ccc2cc(CNc3ccc(OC)c(OC)c3)c(=O)n(CC(=O)Nc3ccccc3F)c2c1	116	107
O=C(Cn1c(SCC(=O)Nc2ccc(F)cc2)nc2ccccc21)NCc1ccc(F)cc1	107	111
Cc1ccc(NC2(c3ccccc3)C(=O)c3ccccc3C2=O)cc1F	102	105
CCC(=O)N1CCc2cc(S(=O)(=O)NC(Cc3ccccc3)C(=O)NCc3ccccc3OC)ccc21 (stereo unspecified)	101	104
